FPRL1 ligand = human FPRL1 ligands by binding competition, primary screen, cell-based, FPR counter-screen, flow cytometry. inhibition, %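 (tested at 6.7 µM)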. FPRL1-expressing cells, fluorescent ligand binding inhibition. N-formyl peptide receptor 2 (Homo sapiens), P25090. actives 0.3% (n = 24,000);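 also: 0% = buffer alone and 100% = receptor blocker peptide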
Target sequence (P25090 whole entry, looked up): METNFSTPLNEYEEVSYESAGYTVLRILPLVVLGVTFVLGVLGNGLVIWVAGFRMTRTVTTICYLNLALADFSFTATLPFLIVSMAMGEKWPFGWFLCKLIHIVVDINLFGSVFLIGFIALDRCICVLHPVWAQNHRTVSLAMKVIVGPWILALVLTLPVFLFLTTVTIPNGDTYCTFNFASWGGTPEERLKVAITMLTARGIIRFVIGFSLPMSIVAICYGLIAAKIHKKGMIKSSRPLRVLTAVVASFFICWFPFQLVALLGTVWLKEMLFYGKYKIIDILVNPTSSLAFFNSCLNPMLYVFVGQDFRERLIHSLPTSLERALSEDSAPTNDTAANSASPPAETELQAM
VCAM-1 down = inhibitors of TNFa-induced VCAM-1 surface display, cell-based, plate reader, pooled HUVEC, TNFa stimulus (AID 454); HUVEC TNFa-induced VCAM-1 surface immunofluorescence, plate reader; numbers were filed only for top-ranked candidate wells; actives 0.2% (n = 10,000); inhibition, % at 5 µM;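 active = compound among top-ranked inhibitors of TNF-induced VCAM-1 adhesion protein staining, with the hit upheld by image or statistical review; inactive = the rest, including hits rejected on review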;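 also: 0% = TNFa with vehicle and 100% = cells without TNFa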
FPR binder = human FPR ligands by binding competition, primary screen, cell-based, FPRL1 counter-screen, flow cytometry; fMet-Leu-Phe receptor (Homo sapiens), P21462; FPR-expressing cells, fluorescent ligand binding; inhibition, %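 (tested at 6.7 µM)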; actives 0.74% (n = 24,000);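 also: 0% = buffer wells and 100% = receptor blocker peptide wells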
Target sequence (P21462 whole entry, looked up): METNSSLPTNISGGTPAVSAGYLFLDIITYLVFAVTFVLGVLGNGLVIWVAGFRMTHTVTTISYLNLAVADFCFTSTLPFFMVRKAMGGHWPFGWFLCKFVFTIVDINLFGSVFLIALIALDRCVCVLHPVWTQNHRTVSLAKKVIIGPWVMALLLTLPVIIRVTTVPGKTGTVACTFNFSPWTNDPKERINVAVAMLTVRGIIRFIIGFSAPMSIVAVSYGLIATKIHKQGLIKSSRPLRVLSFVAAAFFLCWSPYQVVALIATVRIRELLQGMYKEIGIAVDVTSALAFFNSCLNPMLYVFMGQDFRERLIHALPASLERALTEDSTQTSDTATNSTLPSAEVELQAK
VCAM-1 imaging = inhibitors of TNFa-induced VCAM-1 surface display, imaging, high-content imaging, pooled HUVEC, TNFa stimulus (AID 456). actives 0.2% (n = 10,000). inhibition, % at 5 µM; hits with a dose series show IC50 in µM. HUVEC TNFa-induced VCAM-1 surface expression, immunofluorescence imaging; numbers were filed only for top-ranked candidate wells;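 active = top tenth filtered wells with inhibition above zero that passed visual or statistical confirmation; inactive = the rest, including hits rejected on review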;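 also: 0% = stimulated vehicle wells and 100% = unstimulated cells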
VCAM-1 augmentation = enhancers of VCAM-1 display on endothelial cells, imaging, high-content imaging, pooled HUVEC, TNFa stimulus (AID 457); Pooled HUVEC, TNFa-induced VCAM-1 immunofluorescence imaging; hits of this screen are not shown here; actives 0.2% (n = 10,000); calls only;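 active = a top-ranked rise in VCAM-1 staining upheld on image or statistical review; inactive = the rest, including candidates rejected on review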;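 also: compounds tested at 5 µM in the well; cells exposed to compound for 24 hours before fixing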
The depositor's hits bear a star; i = inactive; ? = inconclusive; . = no result given.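 The calls were made as follows, unless noted: active = mean above 30%; inconclusive = self-fluorescent; inactive = the rest.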

SMILES | FPRL1 ligand | VCAM-1 down | FPR binder | VCAM-1 imaging | VCAM-1 augmentation
CCN1CCCC1CNC(=O)c1cc(NC(C)=O)c(N(C)C)cc1OC (configuration not stated) | -30 | . | 3 | . | .
O=C(NCCCN1CCCC1)C1CCN(C(=O)c2cc3sccc3n2Cc2ccc(F)cc2)CC1 | -1 | . | -14 | . | .
Cc1oc(-c2ccc(Cl)cc2)nc1CN1CCC(C(=O)NCCCN2CCCC2=O)CC1 | 2 | . | -5 | . | .
CC(C)C1CC(O)(C2(O)CCCCC2)ON1 (configuration not stated) | 2 | . | -5 | . | .
CC(C)C(NC(=O)C1CCCCC1)C(=O)NCc1ccccn1 (configuration not stated) | 0 | . | -2 | . | .
Cc1ccc(-n2ncc3c(=O)n(CC(=O)Nc4cccc(Cl)c4)cnc32)cc1C | -2 | . | 3 | . | .
Cc1ccc(C(=O)c2cc3c(cc2N)OCCO3)cc1 | -2 | . | 6 | . | .
Cc1nn(-c2ccccc2)c(C)c1C(=O)OCC(=O)c1c(N)n(CC(C)C)c(=O)n(C)c1=O | 7 | i | 4 | i | i
NC(=O)C1CCN(C(=O)c2cc3ccccn3n2)CC1 | -6 | . | -4 | . | .
COc1cc2c(cc1OC)CN(C(=O)CSc1nc3[nH]ncc3c(=O)n1-c1ccccc1)CC2 | 2 | i | 2 | i | i
Nc1ccc(S(=O)(=O)NC(=O)c2ccccc2)cc1 | 0 | i | 2 | i | i
COc1ccc(Cn2nnnc2C(c2ccncc2)N2CCOCC2)cc1 (configuration not stated) | -6 | i | -2 | i | i
CC1=C(C(N)=O)C(c2ccncc2)n2nc(-c3ccccc3Cl)nc2N1 (configuration not stated) | -4 | i | -14 | i | i
COc1ccc(NC(=O)C2CCN(S(=O)(=O)c3cccc4cccnc34)CC2)cc1 | 0 | . | 0 | . | .
COC(=O)[C@H](CCSC)NC(=O)Nc1cc(C)ccc1C | -5 | i | -7 | i | i
Cc1cc(NS(=O)(=O)c2ccc(NC(=O)CN3C(=O)c4ccccc4C3=O)cc2)nc(C)n1 | -1 | . | -2 | . | .
CCOC(=O)c1ccc2[nH]c(C)c(CN3CCN(C)CC3)c(=O)c2c1 | -4 | i | 0 | i | i
CC(C)(C)c1ccccc1OCC(=O)Nc1ncn[nH]1 | 2 | . | 7 | . | .
CCCn1c(=O)c(C(=O)NCc2ccccn2)c(O)c2ccccc21 | 6 | i | -13 | i | i
CCOCCCNC(=O)CN1CCN(Cc2ccccc2C)C1=O | 2 | i | 1 | i | i
COCC(C)NC(=O)c1cc(-c2ccc(OC)c(OC)c2)on1 (configuration not stated) | 3 | . | 4 | . | .
COC(=O)C1CCN(c2cc(=O)n(Cc3ccc(F)cc3)c(=O)[nH]2)CC1 | -1 | . | -24 | . | .
O=C(CCC1CC(=O)Nc2ccccc21)NCc1cccnc1 (configuration not stated) | 3 | . | -4 | . | .
Cc1ccc(CSc2nc3c(c(=O)[nH]2)CCC3)cc1 | -1 | i | 2 | i | i
CCCCN(CC)CCNC(=O)c1cc2c(=O)n(C)c3ccccc3c2n1C | -2 | . | -5 | . | .
Cn1c(=O)cc(SCC(=O)N2CCOCC2)c2ccc(Cl)cc21 | -4 | i | -1 | i | i
CCCCn1c(C(C)NC(=O)c2cccs2)nc2ccccc21 (configuration not stated) | 5 | . | 7 | . | .
CCCc1[nH]nc2c1C(c1ccc(O)cc1OCC)C(C#N)=C(N)O2 (configuration not stated) | 2 | . | 2 | . | .
c1ccc2c(c1)nc(N1CCOCC1)c1nnnn12 | -6 | . | -19 | . | .
CCOC(=O)N1CCC(NC(=O)C2CCN(c3nc(-c4ccc(OC)cc4)no3)CC2)CC1 | 4 | . | -2 | . | .
COc1cccc(NC(=O)c2nnn(CCc3ccccc3)c2N)c1 | -1 | . | 3 | . | .
COC(=O)[C@H](C(C)C)n1c(C)c(C(C)=O)c(C(C)=O)c1C | 31* | . | 12 | . | .
N#Cc1cnc(SCCc2ccccc2)nc1N | -3 | i | -5 | i | i
CCC1Cc2c(nc3c4c(nc(N5CCOCC5)c(C#N)c24)NC(C)=N3)O1 (configuration not stated) | -1 | i | -1 | i | i
CN(C)c1cc(NC(=O)CN2CCOCC2)c2ccccc2n1 | -4 | i | 0 | i | i
Cc1cc(C(=O)Nc2c(C)n(C)n(-c3ccccc3)c2=O)c(C)o1 | -2 | i | -1 | i | i
CCN(CC)S(=O)(=O)c1ccc(NC(=O)Cn2cnc3ccccc3c2=O)cc1 | 1 | i | 0 | i | i
Cn1c(=O)c2c3c(sc2n2c(SCc4ccccc4)nnc12)CCCC3 | -6 | i | 1 | i | i
CC(C)(C)n1nc2c(c1NC(=O)c1ccc(S(=O)(=O)N3CCCC3)cc1)CSC2 | 6 | . | 0 | . | .
CC(C)N(C#N)c1nc(N2CCOCC2)nc(N2CCOCC2)n1 | 0 | . | 2 | . | .
COC(=O)CCSCC(=O)Nc1cc(C)on1 | -4 | . | -5 | . | .
CC(=O)Nc1ccc(S(=O)(=O)NCc2cn3ccsc3n2)cc1 | -6 | . | -6 | . | .
Nc1[nH]ncc1C(=O)Nc1cccc(C(F)(F)F)c1 | 4 | . | -2 | . | .
O=C1OC2CC3CC1CC(O)(C3)C2 (configuration not stated) | 3 | . | 6 | . | .
CCCCNC(=O)C1CC(=O)N(C2CCCCC2)C1 (configuration not stated) | 6 | . | 2 | . | .
Cn1c(=O)oc2cc(S(=O)(=O)N3CCCC(C(=O)N4CCc5ccccc5C4)C3)ccc21 (configuration not stated) | -12 | . | -4 | . | .
C/C(=N\O)c1ccc2c3ccccc3n(C)c2c1 | 13 | . | 14 | . | .
CCOc1cc(CN2CCN(C(=O)c3ccco3)CC2)ccc1OC | 3 | i | 3 | i | i
COc1ccccc1Cn1c(=S)[nH]c2cc(C(=O)N3CCN(C)CC3)ccc2c1=O | 5 | . | -4 | . | .
COc1nc(-c2ccc(Cl)cc2)ccc1-c1noc(-c2ccncc2)n1 | -4 | i | 0 | i | i
Continuation.
SMILES | FPRL1 ligand | VCAM-1 down | FPR binder | VCAM-1 imaging | VCAM-1 augmentation
COc1nc(OC)nc(N2CCC(C(=O)NC3CCCCCC3)CC2)n1 | 8 | i | -7 | i | i
CC(C)(C)C1CCc2onc(C(=O)N3CCOCC3)c2C1 (configuration not stated) | -1 | . | 2 | . | .
Cc1cc(NC(=O)CSC2=Nc3ccccc3C3=NC(Cc4ccccc4)C(=O)N23)n[nH]1 (configuration not stated) | 0 | . | 8 | . | .
CCOCC(=O)Nc1c(C(=O)Nc2ccccc2OC)oc2ccccc12 | 2 | . | -1 | . | .
Cc1nnc(NC(=O)c2ccc(S(=O)(=O)N(C)Cc3ccccc3)cc2)o1 | 3 | . | -4 | . | .
O=C(NCc1ccc(F)cc1)C1CCN(C(=O)NCc2ccccc2)CC1 | -3 | i | -6 | i | i
CCOC(=O)c1cnc(SCC)[nH]c1=O | 7 | i | 8 | 71% | i
Cn1c(=O)c(=O)n(C)c2cc(S(=O)(=O)N3CCOCC3)ccc21 | 2 | . | -3 | . | .
CCOC(=O)c1c(C)n(C)c2c(C)cc(O)c(OC(C)=O)c12 | ? | i | ? | i | i
CCCCC(=O)N=c1sc2cc(S(C)(=O)=O)ccc2n1C | 7 | . | 2 | . | .
CCOC(=O)c1nn(-c2ccc(OC)cc2)c(=O)c2c(NC(=O)c3ccco3)scc12 | -6 | . | 6 | . | .
O=C(c1cnsn1)N1CCN(c2ccccn2)CC1 | 2 | i | 2 | i | i
O=C(NCCN1CCN(c2ccccc2)CC1)C1CCN(S(=O)(=O)N2CCOCC2)CC1 | 2 | . | 8 | . | .
Cn1c(C(=O)N2CCc3ccccc32)cc2c(=O)n3ccccc3nc21 | 2 | . | -2 | . | .
CN(C)CCn1c(C(=O)O)cc2ccccc21 | -1 | . | 1 | . | .
CCOc1ccccc1-n1cnc2cc(C(=O)NCc3ccco3)ccc21 | -2 | . | 9 | . | .
Cc1ccc(-c2[nH]nc3c2C(c2ccoc2)C(C#N)=C(N)O3)cc1C (configuration not stated) | -15 | i | -6 | i | i
COc1ccc(S(=O)(=O)N2CCCC2C(=O)Nc2ccc(C)cc2)cc1 (configuration not stated) | 2 | i | 4 | i | i
CSc1nncc(-c2ccc(F)c(F)c2)n1 | 1 | . | 5 | . | .
COc1ccc(Cc2nc(-c3ccc(-n4cccc4)cc3)no2)cc1OC | 2 | . | 12 | . | .
CN(CCCNC(=O)C1CCN(S(=O)(=O)N2CCC3(CC2)OCCO3)CC1)Cc1ccccc1 | -5 | . | -4 | . | .
COC(=O)c1cc2oc(C)cc2n1CC(=O)Nc1cc(C)cc(C)c1 | -11 | . | 16 | . | .
CC1CCN(C2CC(=O)N(c3ccc(Br)cc3Br)C2=O)CC1 (configuration not stated) | -9 | . | -3 | . | .
Cn1c(=O)n(Cc2ccccc2)c(=O)c2c1nc(NCC1CCCO1)n2Cc1ccccc1 (configuration not stated) | -2 | i | -3 | i | i
CN1C(=O)CSc2ccc(NC(=O)NCc3cccnc3)cc21 | 6 | . | -6 | . | .
CN(C)CCCN1C(=O)c2oc3ccccc3c(=O)c2C1c1cccs1 (configuration not stated) | 2 | i | 5 | i | i
COc1ccc(N(CC(=O)NCc2ccco2)S(=O)(=O)c2c(C)nn(C)c2C)cc1 | 5 | . | 1 | . | .
CSC1=NCCN1C(=O)Cc1cccs1 | -6 | . | 4 | . | .
CCN1CCCC1CNC(=O)C1c2ccccc2C(=O)N(CCOC)C1c1ccc(F)cc1 (configuration not stated) | -8 | . | -8 | . | .
COCCn1nnnc1C(c1cc2cc(OC)ccc2[nH]c1=O)N1CCC(Cc2ccccc2)CC1 (configuration not stated) | -8 | i | 4 | i | i
CC(=O)c1cccc(NC(=O)c2cc(-c3ccc(F)cc3)on2)c1 | 0 | . | -1 | . | .
Clc1ss/c(=N\c2ccccn2)c1Cl | -5 | i | -6 | i | i
O=S(=O)(Nc1nc2ccccc2nc1NCc1ccco1)c1cccs1 | 0 | i | 12 | i | i
Cc1cc(-c2nc3ncccc3o2)ccc1NC(=O)CC(C)C | -1 | . | -5 | . | .
O=C1c2ccccc2C(Nc2ccc3nc(-c4cccnc4)[nH]c3c2)N1Cc1ccco1 (configuration not stated) | 3 | 79* | 3 | 71% | i
CCOc1ccc(C2/C(=C(/O)c3ccccc3)C(=O)C(=O)N2CCCN(C)C)cc1OC (configuration not stated) | 6 | i | 6 | i | i
CCCNC(=O)c1cc(-c2ccc(Br)cc2)on1 | -6 | . | -4 | . | .
COc1ccc2c(c1)CCc1c(C(=O)N3CCc4ccccc4C3)noc1-2 | -3 | . | 0 | . | .
Cc1nn(-c2ccccc2)c(C)c1/C=N/O | -7 | i | -5 | i | i
Cc1ccc(N2CCN(S(=O)(=O)N(C)C)CC2)c(C)c1 | -2 | i | 6 | i | i
Cc1ccccc1NC(=O)CN1CCC(NC(=O)Nc2ccccc2)CC1 | 2 | i | -1 | i | i
CC1=C(c2ccc(Cl)cc2)[N+](=O)C(C)(C)N1[O-] | 10 | i | -1 | i | i
CCOC(=O)c1nn(-c2sc(C(=O)OC)c(C)c2C(=O)OC)cc1O | -4 | i | 1 | i | i
CCC1=C/C(=C/N(C)c2ccccc2)C(=O)S1 | -2 | . | 6 | . | .
Cc1ccc(-c2nc3ncccc3o2)cc1NC(=O)c1ccco1 | -1 | i | 2 | i | i
O=C(Cc1cccs1)N(c1ccc(Cl)cc1)C1C=CS(=O)(=O)C1 (configuration not stated) | 5 | . | 1 | . | .
COc1ccccc1OCC(=O)Nc1cccc(-c2nc3ccccc3o2)c1 | 1 | i | -2 | i | i
O=C(Nc1cccnc1)c1ccc2c(c1)OCO2 | 0 | i | -5 | i | i
COc1ccc2c(CCNC(=O)c3ccco3)c[nH]c2c1 | -2 | . | 5 | . | .
COc1cc(C(=O)NCc2nnc(SCC(=O)Nc3cccc(C)c3)o2)cc(OC)c1OC | -1 | . | 1 | . | .

Screening results from PubChem.

Only part of the results is shown; the hit share may differ from the screen's.
